# total CFTR = total CFTR protein upregulators, primary screen, cell-based, HeLa F508del-CFTR, immunofluorescence, viability (AID 1224863); Cystic fibrosis transmembrane conductance regulator (Homo sapiens); HeLa F508del-CFTR, immunofluorescence total CFTR, 24 h; by the record results were divided by relative cell number; some inactives read as strong as hits; calls, or highest fold increase where a dose series was run; 0.1% of 10,000 active; in the data nearly all actives have a first-pass fold increase above 1.5; a few of its hits are not listed in these tables;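 note: total CFTR protein by anti-CFTR immunofluorescence in fixed cells; first pass at 25 µM or 10 µg/mL by library and series up to twice that; 1 = untreated cells; first-pass hits also needed half or more of the cells alive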
# total CFTR fold 25 µM = also measured in total CFTR; calls as there; fold increase; measured here: primary screen single dose 25 uM; library dosed in µM
# total CFTR fold 10 ug/mL = also measured in total CFTR; calls as there; fold increase; measured here: primary screen 10 ug/mL
# total CFTR viability 25 µM = also measured in total CFTR; calls as there; viability, %; measured here: primary viability 25 uM; library dosed in µM;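 0% = killed and 100% = untreated cells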
# total CFTR viability 10 ug/mL = second read-out of total CFTR, no call of its own (marks repeat the call); viability, %; measured here: primary viability 10 ug/mL;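 0% = killed and 100% = untreated cells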
# * hit, by the source's call; i = inactive; · = no result given; & = joins results of further samples.
SMILES,total CFTR,total CFTR fold 10 ug/mL,total CFTR viability 10 ug/mL,others
CC[C@@H](C(=O)[C@@H](C)[C@@H](O)[C@H](C)[C@@H]1O[C@@H]([C@@H](CC)C(=O)O)CC[C@@H]1C)[C@H]1OC2(C=C[C@@H](O)[C@]3(CC[C@@](C)([C@H]4CC[C@](O)(CC)[C@H](C)O4)O3)O2)[C@H](C)C[C@@H]1C (stereo partly drawn),i,·,·,total CFTR fold 25 µM=0.82;total CFTR viability 25 µM=80.0
CCn1nnnc1SCc1cc(OC)c(OC(F)F)cc1[N+](=O)[O-],i,0.97,103.0,
Fc1ccc(Br)cc1CNC1CCCc2c1cnn2Cc1ccccc1 (stereo not drawn),i,1,81.0,
Cc1sc2nc(-c3cccs3)nc(NCCCN3CCCC3=O)c2c1C,i,0.97,95.0,
CCn1nnnc1SC(C)C(=O)c1[nH]c(C)c(C(=O)OC)c1C (stereo not drawn),i,1.01,94.0,
COc1cc(-c2noc(/C(C#N)=C\c3ccco3)n2)ccc1OC(F)F,i,1.4,86.0,
O=C(CC1C=CCC1)N1CCN(S(=O)(=O)c2ccc3c(c2)CCC3)CC1 (stereo not drawn),i,0.97,91.0,
Nc1nc2c(c(=O)[nH]1)N(C=O)C(CNc1ccc(C(=O)N[C@@H](CCC(=O)O)C(=O)O)cc1)CN2 (stereo partly drawn),i,·,·,total CFTR fold 25 µM=1.1&1.06;total CFTR viability 25 µM=91.0&89.0
Cc1ccc(-c2nc(-c3ccc(C(C)(C)C)cc3)c(C)s2)cc1,i,1.12,96.0,
CC(=O)c1c(C)[nH]c(-c2csc(CN3CCOC3=O)n2)c1C,i,1.03,76.0,
CCCCCCCCCCCCn1c(SCCCCCCCC)nc2c1c(=O)[nH]c(=O)n2C,i,1.03,101.0,
COc1ccc(Cl)cc1CS(=O)(=O)Cc1cccc2ccccc12,i,0.99,89.0,

# Next section; the last six above are carried over.
SMILES,total CFTR,total CFTR fold 10 ug/mL,total CFTR viability 10 ug/mL,others
O=C(CC1C=CCC1)N1CCN(S(=O)(=O)c2ccc3c(c2)CCC3)CC1 (stereo not drawn),i,0.97,91.0,
Nc1nc2c(c(=O)[nH]1)N(C=O)C(CNc1ccc(C(=O)N[C@@H](CCC(=O)O)C(=O)O)cc1)CN2 (stereo partly drawn),i,·,·,total CFTR fold 25 µM=1.1&1.06;total CFTR viability 25 µM=91.0&89.0
Cc1ccc(-c2nc(-c3ccc(C(C)(C)C)cc3)c(C)s2)cc1,i,1.12,96.0,
CC(=O)c1c(C)[nH]c(-c2csc(CN3CCOC3=O)n2)c1C,i,1.03,76.0,
CCCCCCCCCCCCn1c(SCCCCCCCC)nc2c1c(=O)[nH]c(=O)n2C,i,1.03,101.0,
COc1ccc(Cl)cc1CS(=O)(=O)Cc1cccc2ccccc12,i,0.99,89.0,
Cc1cc(NC(=O)N2Cc3ccccc3CC2C(N)=O)no1 (stereo not drawn),i,1,91.0,
O=C(NCC1COc2ccccc2O1)NC(c1ccccc1)c1ccc2nc[nH]c2c1 (stereo not drawn),i,0.93,86.0,
O=C(COc1ccc2oc3c(c2c1)CCCC3)NC1CCCCC1,i,0.87,93.0,
CCCNC(=O)COC(=O)c1ccc([N+](=O)[O-])o1,i,1.05,97.0,
COC(=O)c1occc1CSc1nc(C)nc2sc3c(c12)CCC3,i,0.98,97.0,
O=S(=O)(NC1CCCC1)c1ccc2c(c1)CCC2,i,0.75,84.0,
Cn1nnnc1SCc1nc(Cc2ccccc2)no1,i,1.05,104.0,
CCNc1ccc(Br)cn1,i,1.02,91.0,
CCc1nnc(NC(=O)Cn2nnn(-c3cccs3)c2=O)s1,i,1.01,96.0,
CCN(CCO)CCCC(C)Nc1ccnc2cc(Cl)ccc12 (stereo not drawn),i,·,·,total CFTR fold 25 µM=1.16;total CFTR viability 25 µM=109.0
Cc1noc(CN2CCN(C(=O)c3ccc(Br)o3)CC2)n1,i,1.02,98.0,
CC1=CC(=O)C(C(=O)/C=C/c2ccc(-c3ccccc3F)o2)C(=O)O1 (stereo not drawn),i,1.08,93.0,
COc1ccc(Cc2cnc(N)nc2N)cc1OC,i,·,·,total CFTR fold 25 µM=1.03;total CFTR viability 25 µM=95.0
Nc1nc(F)nc2c1ncn2[C@@H]1O[C@H](CO)[C@@H](O)[C@@H]1O,i,·,·,total CFTR fold 25 µM=0.99;total CFTR viability 25 µM=85.0
O=C(NCCCn1cccn1)C1CC=CCC1 (stereo not drawn),i,1.04,101.0,
OC(CNCC1(N2CCCCC2)CCCCC1)COc1ccc(-c2ccccc2)cc1 (stereo not drawn),i,0.93,93.0,
CCCCN(Cn1nnc2ccccc2c1=O)C1CCS(=O)(=O)C1 (stereo not drawn),i,1.21,91.0,
CCc1cc(C(N)=S)ccn1,i,·,·,total CFTR fold 25 µM=1.05&1.01;total CFTR viability 25 µM=93.0&92.0
Cc1nc(SCC#N)c2c(=O)n(C)c(=O)n(CC(C)C)c2n1,i,1.11,86.0,
O=C(O)C1CC(=O)N(c2ccc(S(=O)(=O)Nc3cc(F)ccc3F)cc2)C1 (stereo not drawn),i,0.98,80.0,
CC(=O)c1c(C)[nH]c(C(=O)NCC(C)(C)N2CCOCC2)c1C,i,1.08,88.0,
O=S(=O)(Cc1cccc(Cl)c1)Cc1cc2c(cc1Br)OCCO2,i,1.11,94.0,
O=C(c1ccc(S(=O)(=O)N2CCOCC2)o1)N(CC1CCOC1)C1CC1 (stereo not drawn),i,0.96,77.0,
CN(C)S(=O)(=O)c1ccc(CN2C(=O)NC3(CCCc4ccccc43)C2=O)o1 (stereo not drawn),i,1.04,88.0,
Cc1cc2c(cc1S(N)(=O)=O)S(=O)(=O)CCC2,i,·,·,total CFTR fold 25 µM=1.11;total CFTR viability 25 µM=110.0
FC(F)(F)c1ccc(CNc2ccc3nnnn3n2)cc1,i,1.12,91.0,
COc1ccc(C(=O)C2CCN(C3CCOC3=O)CC2)cc1 (stereo not drawn),i,0.93,89.0,
CCCCn1c(N)c(N(C)C(=O)CCS(=O)(=O)CC(C)C)c(=O)[nH]c1=O,i,1,103.0,
CC(=O)N1C=Cc2ccccc2C1CC(=O)Nc1cccc(NC(=O)C2CC2)c1 (stereo not drawn),i,1.02,74.0,
Fc1c(-c2ccccc2)nc2sc3c(c2c1-c1ccccc1)CCCC3,i,0.93,93.0,
CC(C)Cc1nc(CN2CCN(c3ccc([N+](=O)[O-])nc3)CC2)no1,i,1.05,88.0,
COC(=O)Cn1c(SCC2CC2(Cl)Cl)nc2ccccc2c1=O (stereo not drawn),i,1.01,103.0,
CCC(C)(C)C(=O)O[C@H]1C[C@@H](C)C=C2C=C[C@H](C)[C@H](CC[C@@H]3C[C@@H](O)CC(=O)O3)[C@H]21,3.82,·,·,total CFTR fold 25 µM=1.52&1.2;total CFTR viability 25 µM=83.0&88.0
CC[N+](CC)(CC(=O)Nc1c(C)cccc1C)Cc1ccccc1,i,·,·,total CFTR fold 25 µM=1.14;total CFTR viability 25 µM=87.0
CC(C)(C)OC(=O)N1CC=C(n2c(=O)n(CN3CCN(c4ncccn4)CC3)c3ccccc32)CC1,i,0.92,96.0,
CN(C)CCN1C(=O)C(=O)/C(=C(/O)c2ccc(F)cc2)C1c1ccco1 (stereo not drawn),i,0.97,103.0,
Cc1cc(-n2c(C)cc(C(=O)CSc3nc(C)c(C)c(C)c3C#N)c2C)no1,i,0.98,83.0,
O=S(=O)(Nc1ccc(OC2CCCC2)cc1)c1cccs1,i,0.87,85.0,
COc1ccccc1Nc1nc(N)nc(CSc2nnnn2C(C)(C)C)n1,i,1.07,86.0,
Cc1c(NCCS(=O)(=O)N2CC(C)OC(C)C2)cc(C#N)cc1[N+](=O)[O-] (stereo not drawn),i,0.98,89.0,
Cc1ccc(S(=O)(=O)N(C2CCCC2)S(=O)(=O)c2ccc(Br)s2)cc1C,i,1.01,73.0,
CS(=O)(=O)N1CCCN(S(=O)(=O)c2ccc3ccccc3c2)CC1,i,1.12,101.0,
COc1ccc(CCN2CCN(S(=O)(=O)N3CCCC3)CC2)cc1,i,0.97,91.0,
O=C(CN1C(=O)C(=O)N(C2CCCC2)C1=O)N1CCc2sccc2C1,i,1.11,94.0,
C#CCN(Cn1nc(-c2ccc(F)cc2)oc1=O)C1CCc2ccccc21 (stereo not drawn),i,1.07,104.0,
COCC(C)Nc1nc(-c2cccs2)nc2sc(C)c(C)c12 (stereo not drawn),i,1.02,103.0,
CSc1ccc(Cl)c(C(=O)OCc2cc(=O)n3cc(Br)ccc3n2)c1,i,0.99,107.0,
c1ccc2c(-c3nnc(SCCN4CCOCC4)n3C3CC3)c[nH]c2c1,i,0.95,90.0,

# Brought forward from above: seven entries, then new ones.
SMILES,total CFTR,total CFTR fold 10 ug/mL,total CFTR viability 10 ug/mL,others
CS(=O)(=O)N1CCCN(S(=O)(=O)c2ccc3ccccc3c2)CC1,i,1.12,101.0,
COc1ccc(CCN2CCN(S(=O)(=O)N3CCCC3)CC2)cc1,i,0.97,91.0,
O=C(CN1C(=O)C(=O)N(C2CCCC2)C1=O)N1CCc2sccc2C1,i,1.11,94.0,
C#CCN(Cn1nc(-c2ccc(F)cc2)oc1=O)C1CCc2ccccc21 (stereo not drawn),i,1.07,104.0,
COCC(C)Nc1nc(-c2cccs2)nc2sc(C)c(C)c12 (stereo not drawn),i,1.02,103.0,
CSc1ccc(Cl)c(C(=O)OCc2cc(=O)n3cc(Br)ccc3n2)c1,i,0.99,107.0,
c1ccc2c(-c3nnc(SCCN4CCOCC4)n3C3CC3)c[nH]c2c1,i,0.95,90.0,
O=C(CC1CC2CCC1C2)Nc1cc(NC(=O)c2ccc3c(c2)OCO3)ccc1F (stereo not drawn),i,0.79,78.0,
O=C(NCCCC1CCCC1)NCc1ccc2c(c1)OCO2,i,0.99,99.0,
Fc1ccc(CSC2=NCCN2)c(Br)c1,i,1.11,95.0,
Cc1cc(C(C#N)c2ccc(Cl)cc2)c(Cl)cc1NC(=O)c1cc(I)cc(I)c1O (stereo not drawn),i,·,·,total CFTR fold 25 µM=0.86;total CFTR viability 25 µM=93.0
O=C(OCC(=O)N1CCNC1=O)c1ccc(F)cc1Br,i,1,87.0,
CN(c1ccccc1)c1ccccc1NC(=O)NCC(C1CCOC1)N1CCCC1 (stereo not drawn),i,0.91,90.0,
CC1CCN(C(=O)COC(=O)C2(C)CC2(Cl)Cl)c2ccccc2S1 (stereo not drawn),i,0.96,88.0,
CCC1CCC2(CC1)NC(=O)N(CC(=O)NCC1CCCO1)C2=O (stereo not drawn),i,0.98,102.0,
COC(=O)Cn1cc(N)cn1,i,1.02,98.0,
COc1ccc(F)cc1CN1c2cccc3cccc(c23)S1(=O)=O,i,1.14,78.0,
O=S(=O)(NCC1(c2ccccc2)CCCC1)c1ccc2c(c1)OCCO2,i,1.03,82.0,
O=C1C(=O)N(CN2CCCC2c2cccs2)c2ccc(Br)cc21 (stereo not drawn),i,1.28,110.0,
Cc1cc(-n2c(C)cc(C(=O)COC(=O)C3(O)CCCCC3)c2C)no1,i,1.01,89.0,
Cn1cc(C(=O)NC2CCNCC2)cn1,i,1.06,103.0,
c1ccc(-c2noc(CSc3nc(C4CC4)n(-c4ccccc4)n3)n2)cc1,i,0.87,96.0,
COCC(=O)N1CCc2[nH]c3ccc(Br)cc3c2C1,i,1.03,104.0,
CC(C(=O)c1ccc2c(c1)NC(=O)CO2)n1cnc2c1c(=O)n(C)c(=O)n2C (stereo not drawn),i,0.94,104.0,
COc1ccc(OC)c(C2CCCN2Cn2nc3ccccn3c2=O)c1 (stereo not drawn),i,1.03,93.0,
CCN1CCC(NS(=O)(=O)c2ccc(Br)s2)CC1,i,0.97,97.0,
CC(NC(=O)CCNC(=O)c1ccco1)C12CC3CC(CC(C3)C1)C2 (stereo not drawn),i,1.1,90.0,
O=S(=O)(Nc1ccc(-c2cnco2)cc1)c1cc(Cl)ccc1Cl,i,0.8,78.0,
Cc1ccsc1/C=c1\s/c(=C\C(=O)c2ccco2)n(C)c1=O,1.75,3.01,96.0,
O=C(N1CCN(Cc2c(F)cccc2Cl)CC1)C12CC3CC(CC(C3)C1)C2,i,1,102.0,
CCn1nnn(CN2CCN(c3ccc(F)cc3)CC2)c1=S,i,1.15,93.0,

# High-throughput results (PubChem)

# This is a subset (hit frequency here may not be typical).
